Screening results: PubChem, National Center for Advancing Translational Sciences (NCATS)
gsp antagonist = antagonizes gsp, the McCune-Albright syndrome mutation | 0.4% of 340,000 active | Potency, µM (doses to about 76.9 µM), inactives show at the highest dose activity change, negative = inhibition, hits mostly inhibitors | gsp-mutant cells, cAMP HTRF, 30 min; control for the full effect not named in the record; active = falling curve of any shape with a large fitted effect; inconclusive = falling curve, mostly with a smaller effect; inactive = flat or rising curve; cell line not stated here;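 note: intracellular cAMP measured with PDE inhibitor Ro 20-1724 present during compound exposure; potency is the fitted concentration of half-maximal effect; % is set by controls: 0 for no effect and ±100 for the full control effect; nearly all actives have a fitted effect of over 65% in size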
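G418-selected cells were plated in DMEM/10% FBS for 16-24 h at 37C, then treated with compounds plus the PDE inhibitor […] (300 uM solution added) for 30 min at 37C. Intracellular cAMP was measured by HTRF after 30 min lysis at room temperature.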
D2 agonist = activates the human D2 dopamine receptor; P14416; DiscoveRx PathHunter D2 beta-arrestin, luminescence, 90 min; 100% = 57 uM dopamine signal; activation, % (concentration not given with the values); 0.084% of 360,000 active; AID 624465; in the data active = activation above about 40%; inconclusive = about 15% to 40%; inactive = below about 15%; note: compound concentration not given in the record; the text of the record calls up to 30% inactive
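Agonist mode: compounds alone added to overnight-plated D2 PathHunter cells for 90 min at 37 C, with 57 uM final dopamine (EC100) defining full response. Beta-arrestin recruitment detected by chemiluminescent reagent, read after 1 h at ambient temperature.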
gsp agonist = activates gsp, the McCune-Albright syndrome mutation. gsp mutant cells, cAMP HTRF, 30 min; control for the full effect not named in the record. 0.13% of 340,000 active. AID 624287. Potency, µM (doses to about 76.9 µM), for the others: top-dose activation (cAMP increase), hits mostly activators; active = well fitted activation curve with a large enough effect; inconclusive = small, poorly fitted or top-dose-only effect, or another doubt; inactive = no such curve, though single readings can be large or run the other way; cell line not stated here;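 note: phosphodiesterase inhibitor Ro 20-1724 added with compounds to block cAMP breakdown; potency is the fitted concentration of half-maximal effect; nearly all actives have a fitted effect of over 60% in size; about a fifth of the inactives were tested at one dose only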
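Cells stably selected in G418 were plated at 2000/well, grown 16-24 hr, then given compounds in DMSO with the PDE inhibitor […] (300 uM solution added) for 30 min at 37C; cAMP was read by HTRF.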
Six1-Eya2 inh = blocks human Six1 binding to Eya2. 0.56% of 360,000 active. Q15475+O00167. activity change, % (concentration not given with the values). AID 651725. AlphaScreen GST-Six1/His-Eya2 binding, biochemical; hits give low values; control for the full effect not named in the record; in the data active = activity change below about -65%; inconclusive = about -30% to -65%; inactive = above about -30%; note: % is set by controls: 0 for no effect and ±100 for the full control effect
Target sequence (O00167 whole entry, looked up): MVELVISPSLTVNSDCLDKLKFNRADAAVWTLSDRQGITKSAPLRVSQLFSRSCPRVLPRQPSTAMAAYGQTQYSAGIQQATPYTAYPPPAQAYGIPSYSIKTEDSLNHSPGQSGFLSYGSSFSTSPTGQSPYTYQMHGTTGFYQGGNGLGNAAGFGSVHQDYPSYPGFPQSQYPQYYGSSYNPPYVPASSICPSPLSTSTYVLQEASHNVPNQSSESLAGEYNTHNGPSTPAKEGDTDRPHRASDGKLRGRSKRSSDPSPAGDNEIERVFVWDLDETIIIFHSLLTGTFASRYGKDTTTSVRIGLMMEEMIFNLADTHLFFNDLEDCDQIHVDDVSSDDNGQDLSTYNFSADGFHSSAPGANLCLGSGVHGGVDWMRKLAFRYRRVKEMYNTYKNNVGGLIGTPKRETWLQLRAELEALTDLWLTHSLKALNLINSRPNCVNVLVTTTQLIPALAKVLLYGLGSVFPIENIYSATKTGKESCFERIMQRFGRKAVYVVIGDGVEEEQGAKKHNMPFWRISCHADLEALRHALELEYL
Target sequence (Q15475 whole entry, looked up): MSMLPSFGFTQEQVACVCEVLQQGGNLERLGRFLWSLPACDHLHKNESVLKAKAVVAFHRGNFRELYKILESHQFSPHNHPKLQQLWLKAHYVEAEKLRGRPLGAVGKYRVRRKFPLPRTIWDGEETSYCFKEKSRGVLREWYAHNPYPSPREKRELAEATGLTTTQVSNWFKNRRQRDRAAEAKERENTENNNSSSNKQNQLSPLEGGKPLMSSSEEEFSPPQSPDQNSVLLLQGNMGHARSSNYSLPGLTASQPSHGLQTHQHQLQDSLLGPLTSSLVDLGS
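AlphaScreen with GST-Six1 and His-Eya2 (5X mix: 250 nM and 500 nM), glutathione donor and nickel acceptor beads; buffer 50 mM Tris pH 8.0, 300 mM NaCl, 1 mM TCEP; 1 h at 37 C in the dark.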
D2 PAM = human D2 receptor positive allosteric modulation | DiscoveRx D2 beta-arrestin cells, luminescence, 90 min; 100% = 57 uM dopamine signal | P14416 | potentiation, % (no concentration beside the values) | 0.23% of 360,000 active; active = potentiation of 50% or more; inconclusive = 30% to 50%; inactive = 30% or less;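 note: compound concentration not given in the record; tested on top of an EC20 dose of dopamine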
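PathHunter D2 cells, attached overnight at 37 deg C, received compound in DMSO plus dopamine at EC20 (50 nM final) for 90 min at 37 deg C. Beta-arrestin recruitment was read as luminescence after 1 h with detection reagent at ambient temperature.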
CtBP-E1A blk = CtBP/E1A binding inhibition; AlphaScreen GST-E1A/His-CtBP binding, 1536-well; hits give low values; control for the full effect not named in the record; activity change, % (concentration not given with the values); 0.49% of 340,000 active; AID 651724; in the data active means activity change below about -65%; inconclusive means about -30% to -65%; inactive means above about -30%; note: % is set by controls: 0 for no effect and ±100 for the full control effect
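Steps: dispense buffer (Tris pH 8.0, NaCl 300 mM, TCEP 1 mM, BSA, Tween 20); add 5X protein mix (GST-E1A, His-CtBP, 125 nM each); pin 23 nL compound; 2 h at 37 °C, dark; add 5X beads (50 ug/mL); 1 h; read.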
Starred values were filed as active, the others as inactive; ? = inconclusive; . = no result given; & = joins results of further samples; [ ] = another dose, or the depositor's remark.

#1 COC(=O)c1c(NC(=O)c2cccc(N3C(=O)CCC3=O)c2)sc2c1CCN(C(C)=O)C2
#2 C#CCNC(=O)C1=C[C@@H](c2ccc(C#C)cc2)[C@H](CCCO)[C@@H](OCC)O1
#3 COc1ccc(-n2nnnc2-c2cn(C)nc2C(F)(F)F)cc1
#4 Cc1cc(NC(=O)Nc2cccc(C)c2C)no1
#5 O=C(CCC(=O)n1ncc2ccccc21)NCc1ccccc1Cl
#6 O=S(=O)(c1ccc(F)cc1)N1CCN(CC(O)COc2ccccc2F)CC1 (stereo not drawn)

Screen / compound no.	1	2	3	4	5	6
gsp antagonist	-21%	1%	0%	3%	1%	-5%
D2 PAM	6	10	-1	-7	-6	-13
CtBP-E1A blk	-14	0	5	-12	7	7
D2 agonist	5.0	0.8	-1.1	-3.3	-3.7	-0.2
Six1-Eya2 inh	-12	-1	0	-10	2	-3
gsp agonist	?	.	-43%[inhibitor]	7%	-26%	-5%[15.4 µM]

#7 Cc1ccccc1C(=O)NNC(=S)NC(=O)c1cccnc1
#8 COc1ccc(C(=O)N/C(=C/c2cccs2)C(=O)NC(C)(C)C)cc1OC
#9 Cc1nn(CC(=O)Nc2ccc3c(c2)OCCO3)c(C)c1[N+](=O)[O-]
#10 COCCCn1c(=N)c(C(=O)NC2CCCCC2)cc2c(=O)n3ccccc3nc21
#11 CCOc1ccc(S(=O)(=O)NC(C)C(=O)NC2CCCC2)cc1 (stereo not drawn)
#12 Cc1ccc(N(C(=O)c2ccc(S(=O)(=O)N3CCCC3)cc2)C2C=CS(=O)(=O)C2)cc1 (stereo not drawn)

Screen / compound no.	7	8	9	10	11	12
gsp antagonist	-8%	-1%	2%	12%	10%	0%
D2 PAM	-10	-7	-15	3	-30	19
CtBP-E1A blk	.	7	6	-2	-4	5
D2 agonist	4.6	0.5	-1.5	-1.9	-4.2	1.2
Six1-Eya2 inh	-7	-2	5	-1	14	0
gsp agonist	-18%	-2%	-5%[15.4 µM]	?	6%[15.4 µM]	-7%

#13 Cc1cc(S(=O)(=O)N2CCOCC2)ccc1OCC(=O)NCCCn1ccnc1
#14 C[C@H](CO)N1C[C@H](C)[C@@H](CN(C)C(=O)Nc2ccc(C(F)(F)F)cc2)Oc2c(NS(=O)(=O)c3cn(C)cn3)cccc2C1=O
#15 c1coc(CN(Cc2ccco2)c2ncnc3c2oc2ccccc23)c1
#16 CCN(CCCNC(=O)CN1C(=O)COc2ccc(S(=O)(=O)N3CCC(C)CC3)cc21)Cc1ccccc1
#17 O=C(Nc1ccccc1Cl)c1ccc(S(=O)(=O)NCC2CCCO2)cc1 (stereo not drawn)
#18 O=C(CSc1ccc2nnc(-c3ccccn3)n2n1)N1CCOCC1

Screen / compound no.	13	14	15	16	17	18
gsp antagonist	5%	3%	?	2%	0%	14%
D2 PAM	-2	-4	1	-19	-5	-3
CtBP-E1A blk	-11	6	-1	-2	5	-1
D2 agonist	-2.3	-2.0	-0.9	-3.1	-0.5	-3.9
Six1-Eya2 inh	5	1	-17	-9	-1	-25
gsp agonist	-88%[inhibitor]	.	-5%	-35%[inhibitor]	5%	?

#19 Cc1ccc(NC(=O)c2ccc(NCCN)c([N+](=O)[O-])c2)cc1Cl
#20 COc1ccccc1N1CCN(C2CCCN(C(=O)c3snnc3C)C2)CC1 (stereo not drawn)
#21 COc1ccc(-c2c(C)n([O-])c3c([n+]2=O)CCC3)cc1OC
#22 COc1ccc(C(=O)NNC(=O)c2snnc2C)cc1
#23 CCOC(=O)N1CCN(C(=O)c2cc3cc(OC)c(OC)cc3[nH]2)CC1
#24 Cc1ccccc1OCC(O)Cn1c(=N)n(CCN2CCOCC2)c2ccccc21 (stereo not drawn)

Screen / compound no.	19	20	21	22	23	24
gsp antagonist	-9%	16%	-1%	-11%	0%	6%&-1%
D2 PAM	-17	-26	9	-7	1	-12&-11
CtBP-E1A blk	?	0	0	5	7	-18&-4
D2 agonist	-4.0	4.2	-2.0	-6.2	-2.9	-2.5&-7.5
Six1-Eya2 inh	-18	0	-1	5	6	-2&-5
gsp agonist	0%	3%	-3%	8%[15.4 µM]	21%	-5%&-66%

#25 O=C(NC(Cc1ccccc1)C(=O)O)C1CCN(S(=O)(=O)c2cccc(C(F)(F)F)c2)CC1 (stereo not drawn)
#26 O=C(NCc1ccc(-c2nc3ccccc3s2)cc1)c1ccco1
#27 Cc1ccccc1OCC(=O)N(Cc1ccc(N(C)C)cc1)C1CCS(=O)(=O)C1 (stereo not drawn)
#28 COc1ccc(S(=O)(=O)N2CCOCC2)cc1NC(=O)Cc1ccc2c(c1)OCCO2
#29 O=C(O)CC(NC(=O)CCc1ccccc1)c1ccc(Cl)cc1 (stereo not drawn)
#30 Cc1nn(S(=O)(=O)c2ccc(F)cc2)c(C)c1S(=O)(=O)N1CCOCC1

Screen / compound no.	25	26	27	28	29	30
gsp antagonist	13%	4%	-10%	15%	4%	6%
D2 PAM	-8	9	-1	-4	-10	-17
CtBP-E1A blk	-3	4	-12	14	0	2
D2 agonist	-3.1	-0.8	-1.1	1.9	-1.1	-1.4
Six1-Eya2 inh	2	4	-11	-24	-4	-3
gsp agonist	4%[15.4 µM]	1%	-20%	-6%	16%	?

#31 O=C1c2ccccc2-c2nnc(-c3ccc(F)cc3)cc21
#32 COCCNc1nc2cc(-c3cccc(C(F)(F)F)c3)sc2c(=O)n1C
#33 O=C(NCc1ccc(F)cc1)C1CC(=O)N(C2CCCCC2)C1 (stereo not drawn)
#34 N#C/C(=C/c1ccc(OCc2ccc(C(=O)O)cc2)cc1)C(=O)Nc1ccccc1
#35 CC(C)(C)C1CCC(=NNc2nc3ccccc3[nH]2)CC1 (stereo not drawn)
#36 COc1ccc2oc(C(=O)NC(C)(C)C)c(C)c2c1

Screen / compound no.	31	32	33	34	35	36
gsp antagonist	9%	.	16%	-13%	18%	-3%
D2 PAM	-26	-6	-9	-5	1	-2
CtBP-E1A blk	-1	9	7	.	-14	7
D2 agonist	-12	-5.5	-4.8	-1.0	?	-2.8
Six1-Eya2 inh	1	2	5	-3	-20	-6
gsp agonist	0%	.	7%	-41%[inhibitor]	-10%	5%

Arranged by molecular weight (rising): some entries from above
#36 COc1ccc2oc(C(=O)NC(C)(C)C)c(C)c2c1
#31 O=C1c2ccccc2-c2nnc(-c3ccc(F)cc3)cc21
#29 O=C(O)CC(NC(=O)CCc1ccccc1)c1ccc(Cl)cc1 (stereo not drawn)
#32 COCCNc1nc2cc(-c3cccc(C(F)(F)F)c3)sc2c(=O)n1C
#34 N#C/C(=C/c1ccc(OCc2ccc(C(=O)O)cc2)cc1)C(=O)Nc1ccccc1

Screen / compound no.	36	31	29	32	34
gsp antagonist	-3%	9%	4%	.	-13%
D2 PAM	-2	-26	-10	-6	-5
CtBP-E1A blk	7	-1	0	9	.
D2 agonist	-2.8	-12	-1.1	-5.5	-1.0
Six1-Eya2 inh	-6	1	-4	2	-3
gsp agonist	5%	0%	16%	.	-41%[inhibitor]

Continuation:
#37 Cc1nc(=O)c(-c2ccccc2)c(C)n1-c1ccc(O)cc1
#38 Cc1cc(C)c(C(=O)COC(=O)CCNS(=O)(=O)c2c(Cl)cccc2Cl)cc1C
#39 CCc1nnc(NC(=O)C2CCCN2C(=O)Nc2ccc(Cl)cc2)s1 (stereo not drawn)
#40 COc1cccc(CNC(=O)c2ccncc2)c1
#41 OC[C@H]1O[C@@H](c2nc(-c3ccc(Br)cc3)no2)C[C@@H]1O
#42 Cc1ccccc1S(=O)(=O)NC1OC(=O)C(Cl)=C1Cl (stereo not drawn)

Screen / compound no.	37	38	39	40	41	42
gsp antagonist	-1%	-5%	9%	9%	.	-1%
D2 PAM	5	-21	-18	-8	-1	20
CtBP-E1A blk	9	-5	6	-1	1	1
D2 agonist	3.3	-3.9	-1.6	0.2	5.1	-2.9
Six1-Eya2 inh	2	-1	-7	-1	7	-13
gsp agonist	-11%	-30%	8%	12%	.	-29%

Some of the entries so far, as labelled records:
37. Cc1nc(=O)c(-c2ccccc2)c(C)n1-c1ccc(O)cc1
  gsp antagonist: -1%
  D2 PAM: 5
  CtBP-E1A blk: 9
  D2 agonist: 3.3
  Six1-Eya2 inh: 2
  gsp agonist: -11%
42. Cc1ccccc1S(=O)(=O)NC1OC(=O)C(Cl)=C1Cl (stereo not drawn)
  gsp antagonist: -1%
  D2 PAM: 20
  CtBP-E1A blk: 1
  D2 agonist: -2.9
  Six1-Eya2 inh: -13
  gsp agonist: -29%
39. CCc1nnc(NC(=O)C2CCCN2C(=O)Nc2ccc(Cl)cc2)s1 (stereo not drawn)
  gsp antagonist: 9%
  D2 PAM: -18
  CtBP-E1A blk: 6
  D2 agonist: -1.6
  Six1-Eya2 inh: -7
  gsp agonist: 8%

(list continues)
#43 CCN(c1ccccc1)S(=O)(=O)c1cccc(C(=O)Nc2ccc(C)cn2)c1
#44 Cc1cc(C(=O)N2CCC(C(N)=O)CC2)c(C)o1
#45 Cc1ccc(C(NC(=O)C2CCN(CCOc3ccccc3)CC2)c2ccccn2)cc1 (stereo not drawn)
#46 COc1ccc(S(=O)(=O)N2CCN(C(=O)c3cccs3)CC2)cc1OC
#47 CCn1cc(C(=O)O)c(=O)c2cc(F)c(N3CCN(C(=S)NC(=O)c4cccc(F)c4)CC3)cc21
#48 CCNC(=O)C1(C)CCN(C(=O)c2ccc(OC)cc2OC)C1 (stereo not drawn)
#49 CSc1ccccc1C(=O)Nc1cccc(C)c1
#50 CC(C)CC(=O)NC(=S)Nc1ccc(N2CCN(C(=O)c3cccs3)CC2)cc1

Screen / compound no.	43	44	45	46	47	48	49	50
gsp antagonist	-26%	12%	.	-6%	-6%	.	4%	-22%
D2 PAM	-2	-1	-14	-1	0	-6	-4	-4
CtBP-E1A blk	-1	-14	0	7	0	3	3	-13
D2 agonist	2.0	-1.3	1.2	-1.4	1.0	-6.8	-0.8	8.7
Six1-Eya2 inh	-2	-2	-8	-1	1	7	2	-16
gsp agonist	-39%	1%	.	-3%	11%[15.4 µM]	.	37%	1%[15.4 µM]
